TRPML1 agonist: qHTS for Agonists of the Human Mucolipin Transient Receptor Potential 1 (TRPML1). Mucolipin-1 (Homo sapiens), Q9GZU1. TRPML1-expressing cells, Ca2+ dye fluorescence, FDSS; host cell line not named in the record; reference of the full effect not given here. activation, % (concentration not given with the values). actives 0.12% (n = 410,000); in the data active = activation above about 50%; inconclusive = about 30% to 50%; inactive = below about 30%; note: 0% is about no effect; the text of the record puts the active cut at 80%
Target sequence (Q9GZU1 whole entry, looked up): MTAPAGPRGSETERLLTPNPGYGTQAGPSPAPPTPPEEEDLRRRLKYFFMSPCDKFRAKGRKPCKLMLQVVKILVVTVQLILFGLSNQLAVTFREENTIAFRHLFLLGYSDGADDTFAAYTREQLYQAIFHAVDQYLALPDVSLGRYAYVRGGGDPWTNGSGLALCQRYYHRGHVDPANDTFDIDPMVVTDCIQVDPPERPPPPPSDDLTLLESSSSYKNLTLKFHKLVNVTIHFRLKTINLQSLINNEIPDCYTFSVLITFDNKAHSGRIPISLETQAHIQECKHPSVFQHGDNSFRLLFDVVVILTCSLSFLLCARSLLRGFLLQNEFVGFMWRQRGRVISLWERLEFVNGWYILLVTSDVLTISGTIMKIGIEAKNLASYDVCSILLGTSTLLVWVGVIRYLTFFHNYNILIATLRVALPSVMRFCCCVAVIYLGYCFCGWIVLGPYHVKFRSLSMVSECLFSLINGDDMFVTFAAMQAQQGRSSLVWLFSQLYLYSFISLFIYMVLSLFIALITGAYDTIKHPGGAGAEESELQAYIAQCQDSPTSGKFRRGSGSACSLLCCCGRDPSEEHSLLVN
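TRPML1-DL cells, Tet-induced overnight (~16 h, 37 degrees C), loaded 45-90 min at room temperature with Ca8 no-wash calcium dye plus quencher. FDSS fluorescence: 10 s baseline, compound pin-transfer, 110 s agonist read, then EC80 54-4 (4uM final) and 110 s antagonist read.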
TRPML1 inh: qHTS for Inhibitors of the Human Mucolipin Transient Receptor Potential 1 (TRPML1). TRPML1-inducible cells, Ca2+ dye fluorescence, FDSS; hits give low values; inhibition of EC80 agonist-evoked calcium signal. activity change, negative = inhibition, % (test concentration not listed). actives 0.02% (n = 390,000). AID 624415, 2012; in the data active means activity change below about -50%; inconclusive means about -30% to -50%; inactive means above about -30%;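 note: stimulus is agonist 54-4 at its EC80 concentration; % is set by controls: 0 for no effect and ±100 for the full control effect; compound concentration not given in the record; the text of the record puts the active cut at -80%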
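Calcium fluorescence in TRPML1-DL cells induced overnight with Tet: a 110 s read after compound pin addition, then a 110 s antagonist read after challenge with 54-4 at 4 uM final (EC80).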
The depositor's hits bear a star.

SMILES	TRPML1 agonist	TRPML1 inh
COc1ccccc1CNC(=O)CCC1N=C2c3ccccc3N=C(SCc3ccc(Cl)cc3)N2C1=O (stereo not given)	4.1	31.9
O=C(Nc1ccc(F)cc1F)c1cc(-c2ccc(Cl)cc2)on1	0.2	46.5
COc1ccc(-c2noc(CSc3nnc(-c4ccncc4)n3-c3ccc(C)cc3)n2)cc1	-0.1	16.5
COc1ccc(-c2nc(S(=O)(=O)c3ccc(C)cc3)c(N3CCCCC3)o2)cc1	-0.6	-10.1
COc1ccc(C2C=C(c3ccccc3)Nc3nc(NS(=O)(=O)c4ccccc4)nn32)cc1 (stereo not given)	7.9	7.4
CCOC(=O)N[C@H](Cc1c[nH]c2ccccc12)C(=O)Nc1cccc(Cl)c1	3.0	-1.8
CCOc1ccc(NC(=O)/C(C#N)=C\c2ccc(-c3ccc(Cl)cc3)o2)cc1	-0.3	10.6
COc1ccccc1NC(=O)C1CCN(c2cnccn2)CC1	-0.6	-8.3
Cc1ccc(C)c(N2CCN(CCCNC(=O)c3ccc4nc(C(C)C)oc4c3)CC2)c1	-0.9	-13.3
Cc1cc(C)n(-c2nc3ccccc3nc2Nc2ccc(N(C)C)cc2)n1	0.2	14.2
COc1ccc(CCNC(=O)c2c(Nc3ccccc3C)sc(C(=O)c3ccccc3)c2N)cc1OC	3.0	7.2
Cc1ccc(OCC(=O)Nc2nnc(SCc3cc(=O)n4cc(C)ccc4n3)s2)cc1	1.7	-12.4
Cc1cc(Nc2cccc(Cl)c2)nc2ccc(NC(=O)Cc3cccc(C(F)(F)F)c3)cc12	-0.6	8.5
Clc1ccc(-c2noc3ncnc(NC4CCCCC4)c23)cc1	2.0	17.3
COc1cccc(N2CCN(c3ccc4nnc(CCC(=O)O)n4n3)CC2)c1	-0.4	-7.0
Cc1ccc(S(=O)(=O)Nc2cc3c(C(=O)OCc4ccccc4)c(C)oc3c3ccccc23)cc1	-0.4	43.5
Cc1cccc(C)c1NC(=O)Cn1cc(C(=O)c2ccco2)c2ccccc21	0.3	13.0
Cc1ccc(C)c(Cn2cc(CCC(=O)NC3CCCCC3)c3ccccc32)c1	-0.6	19.1
O=C(Nc1ccc2c(c1)N(C1CCCC1)C(=O)c1ccccc1S2)c1ccccc1	1.1	-11.4
COc1ccc(-c2c3c(nc4sc(C(=O)Nc5ccc(F)cc5)c(N)c24)CC(C)(C)CC3=O)cc1	4.3	27.3
Cc1ccc(C)c(-n2nnc(C(=O)Nc3ccc(Br)cc3)c2C)c1	-0.7	20.7
COc1ccc(CC(=O)NCC(c2cccs2)S(=O)(=O)c2ccc(F)cc2)cc1 (stereo not given)	-0.1	3.9
COc1ccccc1CNC(=O)CN1C(=O)CCn2nc(-c3ccccc3)cc21	-0.7	-11.1
Cc1cc(C)cc(C(=O)Nc2cc(C(F)(F)F)ccc2N2CCN(c3ccccc3)CC2)c1	0.5	6.0
COc1ccc(CNC(=O)CCc2c(C)nc3cc(-c4ccc(OC)cc4OC)nn3c2C)cc1	-1.2	-23.2
Cc1ccc(-c2nnc3ccccc3c2C(=O)Nc2cccc(Cl)c2)cc1	0.0	2.1
COc1cccc(CNC(=O)c2cccc(N3CCCS3(=O)=O)c2)c1	1.7	-3.5
Cc1ccc(NC(=O)Cn2c(=O)n(Cc3nc(C)no3)c(=O)c3cc4c(cc32)OCO4)cc1	1.2	-26.2
Cc1c(-c2ccc(Cl)cc2)c(=O)oc2c(CN3CCN(C)CC3)c(O)ccc12	-0.6	23.1
CCN(CC)S(=O)(=O)c1ccc2c(c1)N(CC(=O)NCCc1ccccc1)C(=O)CO2	-0.6	-2.7
COc1ccc(-c2nc3cc(NC(=O)CSc4ccc(C)cc4)ccc3o2)cc1	4.6	-0.4
CCOc1ccc(-c2nc(CNC(=O)Nc3ccccc3)c(C)o2)cc1	0.6	-16.5
CC(C)COc1ccc(C(=O)Nc2nnc(S(=O)(=O)N(C)Cc3ccco3)s2)cc1	0.6	10.0
CCc1ccc(-c2nc3c(c(SCc4ccccc4)n2)Cc2c(CO)cnc(C)c2O3)cc1	1.1	-9.7
CC(C)Cn1nc(NC(=O)c2cccc(Cl)c2)c2cc3ccccc3nc21	1.8	-13.6
Cc1c(CCNC(=O)c2c(F)cccc2F)sc2nc(-c3ccc(F)cc3)nn12	-0.1	-7.7
COC(=O)CN1C(=O)CSc2ccc(S(=O)(=O)Nc3cccc(Br)c3)cc21	1.3	12.5
Oc1c(C(c2ccccc2)N2CCOCC2)sc2nc(-c3ccco3)nn12 (stereo not given)	0.3	-2.7
COc1ccc(S(=O)(=O)Nc2cccc(-c3ccc(N4CCCCCC4)nn3)c2)cc1	-0.4	7.2
COc1ccc(-c2c3c(nc4sc(C(=O)Nc5cccc(OC)c5)c(N)c24)CC(C)(C)CC3=O)cc1	4.0	-4.8
COC(=O)c1ccc(Cn2c(SCc3ccc(F)cc3)nc3ccncc32)cc1	0.6	13.9
COc1cccc(CNC(=O)Cn2cc3c(n2)-c2c(oc(C(=O)N4CCCC4)c2C)CC3)c1OC	0.6	15.7
CCOC(=O)c1c(C)[nH]c(C)c1S(=O)(=O)NCC(=O)N1CCN(c2cc(Cl)ccc2C)CC1	1.9	-26.8
CCCOc1ccc(C2c3c(oc4ccccc4c3=O)C(=O)N2c2nnc(C(C)C)s2)cc1 (stereo not given)	0.3	-2.9
CC1=C(C(=O)Nc2ccc(C)cc2C)C(c2sccc2C)n2ncnc2N1 (stereo not given)	0.8	-4.7
Cc1ccc(C(=O)NCc2ccc(N(C)C)cc2)cc1NC(=O)c1nsc2ccccc12	1.8	-10.5
COc1ccc(-c2noc(COc3ccc(Br)cc3C)n2)cc1OC	1.9	-3.7
CCOC(=O)c1c(NC(=O)/C=C/c2ccc(C)cc2)sc2c1CCCC2	-0.8	-10.5
CCCS(=O)(=O)N1CC(=O)N(c2ccccc2C)C(C)(C(=O)NC2CCCC2)C1 (stereo not given)	1.2	-1.9
Cc1ccc(Cl)cc1N1CCN(C(=O)c2cc3c(-c4ccccc4F)nn(C)c3s2)CC1	0.0	22.8
COc1cccc(-n2c(=O)c3c(C)c(C)sc3n(CC(=O)Nc3ccccc3OC)c2=O)c1	3.7	4.6
COc1ccc(CNC(=O)C(C)n2ccc3cc(S(=O)(=O)N4CCCC4)ccc32)cc1OC (stereo not given)	-0.4	11.3
CCCN(C(=O)c1coc(=O)c2ccccc12)c1ccccc1C	-0.6	2.6
CCOc1cc(C(=O)NCC(c2ccc(N(C)C)cc2)N2CCOCC2)cc(OCC)c1OCC (stereo not given)	-0.7	1.1
CCOC(=O)c1ccc(N2C(=O)c3n[nH]c(-c4ccco4)c3C2c2ccccc2OC)cc1 (stereo not given)	2.1	-2.5
Cc1cc(F)ccc1NC(=O)C1CCCN(S(=O)(=O)c2ccc3c(c2)CCCC(=O)N3)C1 (stereo not given)	1.3	2.3
COC(=O)CSc1ncc2c(n1)-c1ccccc1N(Cc1ccc(Cl)cc1)S2(=O)=O	0.3	34.4
COc1ccc(-c2cc(C(=O)NCCc3ccccc3)c3c(-c4ccc(Cl)cc4)[nH]nc3n2)cc1	-0.3	35.5
Cn1cc(S(=O)(=O)N2CCCCC2)cc1C(=O)Nc1cccc(C#N)c1	0.4	9.9
COc1ccc(Cn2c(CO)cnc2SCc2ccc(C)cc2)cc1	2.6	-9.6
(continued)
SMILES	TRPML1 agonist	TRPML1 inh
COC(=O)c1ccccc1NC(=O)c1ccc(-c2nc(CSc3ccc(C)cc3)c(C)o2)cc1	-0.1	2.6
CCOC(=O)c1c(C)[nH]c(C)c1S(=O)(=O)N1CCCC(C(=O)NCc2ccc(N(C)C)cc2)C1 (stereo not given)	-1.3	1.5
O=C(CSC1=Nc2ccccc2N=C(c2ccc(F)cc2)C1)Nc1cc(F)ccc1F	0.4	-5.3
CC(C)(C)OC(=O)N1CCC(c2c(C(=O)N3CCN(c4ccc(Cl)cc4)CC3)cnn2-c2ccc(F)cc2F)CC1	-0.1	-10.2
COc1ccc(-c2noc(CN3CCN(c4cccc(Cl)c4)CC3)n2)cc1	0.0	43.3
COCCCNC(=O)c1cnn(-c2ccccc2Cl)c1C1CCN(C(=O)OC(C)(C)C)CC1	3.2	36.0
Cc1cc(-c2ccc(S(=O)(=O)NCc3ccccc3Cl)s2)on1	1.1	65.6
O=c1n(Cc2cccc(C(F)(F)F)c2)c2ccccc2c2nc(-c3ccccc3)nn12	-0.1	-22.7
Cc1ccc(S(=O)(=O)N2CCN(Cc3cc(=O)n4nc(-c5ccccc5Cl)sc4n3)CC2)cc1	-0.3	-20.8
Cc1ccc(C(=O)CSc2nnc(-c3ccccc3)n2-c2ccccc2)cc1	1.2	-13.2
CC(=O)c1cccc(NC(=O)Cn2c(=O)oc3cc(S(=O)(=O)NC4CCCC4)ccc32)c1	0.0	7.9
COc1ccc(CCNC(=O)c2cc3c(=O)oc4ccc(C)cc4c3s2)cc1OC	-1.0	-2.7
Cc1ccc(Cl)cc1NC(=O)c1sc2nc(-c3ccccc3)cn2c1C	0.2	69.3
O=C(CN1CCN(S(=O)(=O)c2cc(Cl)ccc2Cl)CC1)Nc1cccc(F)c1	2.0	-2.5
O=C(c1ccc(Br)cc1)N1CCC(c2nc3ccccc3s2)CC1	-0.3	12.9
Cc1ccc(-c2c(C(=O)NCCc3ccc(Cl)cc3)oc(=O)c3ccccc23)cc1	-0.2	-5.8
CC(=O)c1ccc(N2CCN(C(=O)c3ccc(Cn4c(=O)[nH]c5ccccc5c4=O)cc3)CC2)cc1	-0.1	15.0
CCN1c2ccccc2-c2nc(SCC(=O)Nc3ccc(C)c(Cl)c3)ncc2S1(=O)=O	0.8	13.1
Cc1ccc(Sc2ccc(N3CCCC(C(=O)Nc4ccc(F)c(Cl)c4)C3)nn2)cc1 (stereo not given)	0.2	8.4
Cc1cc(NC(=O)CN(c2cccc(C)c2C)S(=O)(=O)c2ccccc2)ccc1Br	-0.5	27.3
CCOC(=O)c1sc2cccc(F)c2c1S(=O)(=O)Nc1ccccc1F	2.4	-3.4
CCOc1ccccc1NC(=O)Nc1nnc(N2CCCC(C)C2)s1 (stereo not given)	0.6	-12.6
Cc1ccc(C)c(N2CCN(C(=O)c3cnn(-c4ccccc4Cl)c3C3CCN(C(=O)OC(C)(C)C)CC3)CC2)c1	3.8	-0.2
CCOC(=O)c1c(N)n(-c2ccc(Cl)c(Cl)c2)c2nc3ccccc3nc12	0.2	-6.3
CCCCCn1c(=O)[nH]c2cc(C(=O)Nc3cc(OC)cc(OC)c3)ccc2c1=O	-0.6	4.1
Cc1ccccc1-c1nc(SCC(=O)NCc2ccco2)c2c(=O)n(C)c(=O)n(C)c2n1	1.0	46.4
O=C(NCCn1cc(SCc2ccccc2F)c2ccccc21)c1cccs1	1.3	21.3
CCn1c(Oc2ccc(F)cc2F)nc2c1c(=O)n(C)c(=O)n2C	2.3	-5.5
Cc1nn(C)c2c1c(-c1ccccc1)cc(=O)n2CC(=O)NC(C)(C)C	3.4	26.0
COC(=O)C1=C(C)NC(=O)C1(NC(=O)c1cc(OC)c(OC)c(OC)c1)C(F)(F)F (stereo not given)	1.7	-18.3
COc1cccc(NC(=O)Cn2c(=O)n(-c3ccc(C)cc3)c(=O)c3ccccc32)c1	0.9	6.4
CCc1ccc(NC(=O)Cn2c(=O)n(-c3ccc(Cl)c(Cl)c3)c(=O)c3c(C)c(C)sc32)cc1	0.4	-2.5
COc1ccccc1N1CCN(Cc2nnc(-c3ccccc3C)o2)CC1	-1.0	5.8
COc1ccc(-c2csc3nc(-c4ccc(F)cc4)oc(=O)c23)cc1OC	-0.4	0.1
Cc1cccc(N2CCN(C(=O)C3CCN(S(=O)(=O)c4c(C)noc4/C=C/c4ccccc4F)CC3)CC2)c1C	0.0	-19.8
Cc1ccc(NC(=O)C2CCN(c3nc(-c4ccc(C(C)C)cc4)no3)CC2)c(Cl)c1	-0.8	8.7

Bioassay records (PubChem BioAssay)

These rows are one share of the data; count on the stated rates, not on these rows.
